VDR inhibitor: blocks the human vitamin D receptor. VDR-SRC2-3 peptide fluorescence polarization, 2 h. Potency, µM, for inactives: max response, negative = inhibition, usual class: inhibitors. 400,000 tested, 0.93% active. AID 504847; active = well fitted inhibition curve with a large enough effect; inconclusive = small, poorly fitted or top-dose-only effect, or another doubt; inactive = no such curve, though single readings can be large or run the other way; note: series mostly up to about 120 µM
Target sequence (P11473 whole entry, looked up): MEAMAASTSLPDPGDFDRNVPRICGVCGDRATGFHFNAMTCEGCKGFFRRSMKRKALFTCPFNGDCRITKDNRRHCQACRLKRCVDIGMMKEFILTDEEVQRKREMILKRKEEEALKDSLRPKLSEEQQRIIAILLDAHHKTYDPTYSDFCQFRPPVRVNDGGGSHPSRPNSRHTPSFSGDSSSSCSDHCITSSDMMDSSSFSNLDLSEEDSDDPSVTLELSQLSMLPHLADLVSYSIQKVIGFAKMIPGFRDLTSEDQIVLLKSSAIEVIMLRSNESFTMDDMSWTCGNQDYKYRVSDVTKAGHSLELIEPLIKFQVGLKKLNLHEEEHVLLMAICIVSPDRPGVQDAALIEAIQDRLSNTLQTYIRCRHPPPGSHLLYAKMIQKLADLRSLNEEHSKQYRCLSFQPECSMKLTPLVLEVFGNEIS
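Fluorescence polarization assay measuring small-molecule disruption of VDR binding to the coregulator peptide SRC2-3. Compounds were pin-transferred (23 nl) into the reagent mix and incubated 2 h at room temperature before reading.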
* marks the source's active call; other numbers are inactive results; ? = inconclusive; & = joins results of further samples; [ ] = another dose, or the depositor's remark. % is set by controls: 0 for no effect and ±100 for the full control effect; potency is the fitted concentration of half-maximal effect.

VDR inhibitor | mol
-15% | COc1ccc(/C=N/n2c(-c3cc(C)[nH]n3)n[nH]c2=S)cc1
24% | CCCc1c(C(=O)N/N=C/C(C)=C/c2ccccc2)nnn1-c1nonc1N
5% | Cc1ccc(C(=O)NC(=S)NCC2CCCO2)cc1 (stereo not drawn)
-1% | Cc1ccc(S(=O)(=O)N2CCN(C(=O)/C=C/c3ccco3)CC2)cc1
8% | CCc1c(C)nc2cc(-c3ccc(OC)c(OC)c3)nn2c1NCC1CC1
-6% | COC(=O)c1ccc2c(=O)n(CCCN3CCOCC3)c(=S)[nH]c2c1
16% | COc1ccc(Cl)cc1NC(=O)CSc1nnc(C)n2c1cc1occc12
5% | O=C(O)c1n[nH]c2ccccc12
12% | COc1ccc(/C=C(/C#N)C(=O)Nc2ccc(C)cc2C)cc1C(=O)O
-2% | Cc1ccc(Oc2cc([N+](=O)[O-])cc3c2C(=O)Nc2ccccc2O3)cc1
8% | O=[N+]([O-])c1ccc(N2CCOCC2)c(S(=O)(=O)N2CCOCC2)c1
-20% | CN1C(=O)C(C)(C)c2cc(S(=O)(=O)NCC3CCC(C(=O)NCc4ccccc4)CC3)ccc21 (stereo not drawn)
4% | O=C(NCC1CCCO1)C1CCN(S(=O)(=O)c2cccc3cccnc23)CC1 (stereo not drawn)
-1% | COc1cc(NS(=O)(=O)c2ccc(NC(=O)CN3C(=O)c4ccccc4C3=O)cc2)nc(OC)n1
11% | CN1CCc2cc(NC(=O)Nc3cccnc3)ccc21
-14% | Cc1ccc2c(nc3s/c(=C\c4ccc(-c5ccccc5C(=O)O)o4)c(=O)n32)c1C
1% | CCOc1ccc(NC(=O)[C@@H]2CCCN2C(=O)c2cccs2)cc1S(=O)(=O)N1CCCCC1
-27% | O=C(OCC(=O)N1CCN(C(=O)c2ccco2)CC1)c1cc(-c2ccco2)nc2ccccc12
-13% | COc1ccc(CC(=O)OCC(=O)c2ccc(OC)cc2)cc1
-17% | COc1ccc(NC(=O)N(C)C[C@H]2Oc3ccc(NC(=O)Cn4cnnn4)cc3C(=O)N([C@H](C)CO)C[C@@H]2C)cc1
? | Cc1cccc(C2c3[nH]c4ccccc4c3CCN2C(=O)c2nn(C)c(=O)c3ccccc23)n1 (stereo not drawn)
9% | COc1ccccc1-c1noc(-c2cccs2)n1
-14% | NC(=S)N/N=C\c1ccc(-c2cccc(Cl)c2Cl)o1
8% | Cc1ccc(CCNS(=O)(=O)c2cc3c(cc2C)NC(=O)CO3)cc1
-19% | CCOC(=O)N1CCN(C(=O)CCN2C(=O)COc3ccccc32)CC1
0% | CCOc1ccc(NC(=O)CCn2cccn2)cc1
-6% | CCOC(=O)C1(Cc2ccc(OC)cc2)CCN(C(=O)c2cccc3nccnc23)CC1
0% | CCCSC1=NC2(CCN(C(=O)NC3CCCCC3)CC2)N=C1c1ccc(Cl)cc1
-9% | Cc1cccn2cc(COc3ccc(-c4ccccc4)cc3)nc12
1% | Cc1ccn2cc(-c3cccc(NC(=O)CCC(=O)O)c3)nc2c1
-11% | COc1ccc(/C=C(/NC(=O)c2ccccc2)C(=O)NCc2ccco2)cc1
0% | COc1ccc(-n2nc3c(N)n[nH]c3cc2=O)cc1
2% | CCCCC(O)(c1ccc(OC)cc1)C(CN1CCOCC1)c1ccccc1 (stereo not drawn)
143%[activator] | O=C(Nc1nnc(SCc2c(Cl)cccc2Cl)s1)C1CC(=O)N(c2ccc3c(c2)OCCO3)C1 (stereo not drawn)
5% | CCN(CC)CCCN=Cc1c(O)n(-c2c(C)cccc2C)c(=O)c2ccccc12
-14% | NC(=O)C1CCN(Cc2nc(-c3ccccc3)no2)CC1
6% | O=C(Cc1n[nH]c(=O)c2ccccc12)Nc1cccc(S(=O)(=O)N2CCCCCC2)c1
-9% | O=C1N/C(=N/O)S/C1=C\c1ccccc1-n1cccn1
7% | COC(=O)c1c(NC(=O)c2cc(=O)c3cc(C)cc(C)c3o2)sc2c1CCC2
6% | CCN(CC)C(=O)Cn1cc(S(=O)(=O)CC(=O)N2CC(C)OC(C)C2)c2ccccc21 (stereo not drawn)
? | Cc1cc(C)c(NC(=O)C[C@H](CC(=O)O)c2cccc3ccccc23)c(C(=O)N2CCC3(CCCC3)CC2)c1
40µM* | CN(Cc1ccco1)c1cc(-c2ccccc2C(F)(F)F)ncn1
-8% | N#Cc1nc(-c2ccco2)oc1NCCCn1ccnc1
11% | O=C(O)c1ccc(CNC(=O)c2ccc3c(c2)OCCO3)cc1
1% | S=c1nn[nH]n1C12CC3CC(CC(C3)C1)C2
18µM* | CCOC(=O)c1c(NC(=O)CSc2nnnn2-c2ccc(OC)cc2)sc(C)c1C
? | Clc1ccccc1CSc1nnc(-c2ccccn2)n1Cc1ccco1
14% | CCN(CC)C(=O)COC(=O)c1ccc(O)cc1
0% | O=C(NCCc1ccccn1)c1cncc(Br)c1
-3% | CCCc1cc(N2CCCC2)n2nc(C)c(-c3ccccc3)c2n1
0% | Cc1noc(C)c1C(=O)OCC(=O)Nc1cc(Cl)ccc1Oc1ccccc1
-7% | CC(C)(C)OC(=O)Nc1ccc([C@H](NC(=O)OC(C)(C)C)C(=O)OC(C)(C)C)cc1
11% | CC(C)N(Cc1ccccc1)C(=O)c1nc(-c2ccc(Cl)cc2)n2c1CCCCC2
-8% | Cc1ccc(-c2nnc(Nc3ccc(Br)cc3)c3ccccc23)cc1S(=O)(=O)N1CCN(C)CC1
5% | C=CCn1c(SCC(=O)Nc2ccc3c(c2)OCO3)nnc1-c1ccccc1
19% | Cc1c(CCOC(=O)C23CC4CC(CC(C)(C4)C2)C3)sc[n+]1Cc1ccccc1
5% | O=C(/C=C/c1ccc(-c2ccccc2[N+](=O)[O-])o1)c1ccc(Br)cc1
-9% | COCCNc1oc(-c2ccc(Cl)cc2)nc1C#N
3% | COc1cccc(N2CCN(C(=O)c3cccn3-c3nnc(N4CCCC4)s3)CC2)c1
3% | CCOc1ccc2nc(NC(=O)CSc3nc4ccccc4c(=O)n3Cc3ccco3)sc2c1

Next section.
VDR inhibitor | mol
9% | O=C1NC(=O)c2cc3ccccc3cc21
11% | CCOC(=O)c1ccc(S(=O)(=O)N2CCN(C(=O)CSc3nc4ccccc4o3)CC2)cc1
-2% | O=S(=O)(Nc1ccc(N=Nc2ccc(O)c3ccccc23)cc1)c1ccccc1
6% | Cc1ccccc1NC1=CC(=O)CC(C)(C)C1
-6% | CCCCCC(=O)N1CCN(c2ccc(C(C)=O)cc2F)CC1
-3% | Cc1c(OCC(=O)NCc2cccnc2)ccc2c3c(c(=O)oc12)CCC3
4% | COc1ccccc1CN1C(=O)CNC1=S
24% | CC1=C(C(N)=O)C(c2cccs2)n2ncnc2N1 (stereo not drawn)
-30% | COc1ccccc1NC(=O)Cn1c(=O)n(C)c(=O)c2sc3c(c21)COC(C)(C)C3
-3% | CCN(C[C@H]1N[C@@](C)(C(=O)OC)[C@H]2C(=O)N(C)C(=O)[C@@H]12)S(=O)(=O)c1ccc(C(F)(F)F)cc1
-30% | Cc1ccc(-c2ccc(C(=O)Nc3cccc(F)c3)o2)c2ccccc12
3% | CC(OC(=O)c1ccc(S(=O)(=O)N2CCCCC2)cc1)C(=O)NC1CCCCC1C (stereo not drawn)

Taken from above.
Entry of `Cc1ccccc1NC1=CC(=O)CC(C)(C)C1` under VDR inhibitor: 6%
Entry of `O=S(=O)(Nc1ccc(N=Nc2ccc(O)c3ccccc23)cc1)c1ccccc1` under VDR inhibitor: -2%
Entry of `CC1=C(C(N)=O)C(c2cccs2)n2ncnc2N1` (stereo not drawn) under VDR inhibitor: 24%
Entry of `COc1ccccc1CN1C(=O)CNC1=S` under VDR inhibitor: 4%
Entry of `CCN(C[C@H]1N[C@@](C)(C(=O)OC)[C@H]2C(=O)N(C)C(=O)[C@@H]12)S(=O)(=O)c1ccc(C(F)(F)F)cc1` under VDR inhibitor: -3%
Entry of `CCOC(=O)c1ccc(S(=O)(=O)N2CCN(C(=O)CSc3nc4ccccc4o3)CC2)cc1` under VDR inhibitor: 11%
Entry of `CC(OC(=O)c1ccc(S(=O)(=O)N2CCCCC2)cc1)C(=O)NC1CCCCC1C` (stereo not drawn) under VDR inhibitor: 3%

The listing picks up, repeating the 3 entries before the break.
VDR inhibitor | mol
-3% | CCN(C[C@H]1N[C@@](C)(C(=O)OC)[C@H]2C(=O)N(C)C(=O)[C@@H]12)S(=O)(=O)c1ccc(C(F)(F)F)cc1
-30% | Cc1ccc(-c2ccc(C(=O)Nc3cccc(F)c3)o2)c2ccccc12
3% | CC(OC(=O)c1ccc(S(=O)(=O)N2CCCCC2)cc1)C(=O)NC1CCCCC1C (stereo not drawn)
-32% | O=C(CCN1C(=O)/C(=C/c2ccccc2Cl)SC1=S)Nc1ccccn1
-1% | CCOC(=O)C1CCN(C(=O)C2CCN(C3=NS(=O)(=O)C(c4ccc(C)c(C)c4)=C3C)CC2)CC1
0% | COc1cc(/C=C/C(=O)O)ccc1S(=O)(=O)N1CCCc2ccccc21
-3% | COc1cccc(Cn2c(=O)c(-c3cccc(C#N)c3)nc3cnc(Nc4ccccc4)nc32)c1
0% | COc1ccc(C(=O)N/C(=C\c2cn(C)c3ccccc23)C(=O)N2CCOCC2)cc1
-2% | CNc1nc(NCc2ccccc2)c2ccccc2n1
2% | COc1ccc(CNC(=O)Cn2nnc(-c3ccccc3F)n2)cc1
2% | CN(c1ccccc1)c1nc(N)c([N+](=O)[O-])c(NCCO)n1
-3% | Cc1cc(NS(=O)(=O)c2ccc(NC(=O)COc3ccccc3Br)cc2)no1
0% | CN(C)c1oc(-c2ccc(COc3ccccc3)o2)nc1C#N
3% | CC(=O)NC(CC(=O)NCCc1ccccc1)c1ccccc1 (stereo not drawn)
2% | CCCCCCNCCn1cnc2c(N)ncnc21
-9% | CCC1(CC)NC(=O)N(CC(=O)OCn2nnc3ccccc3c2=O)C1=O
16% | COc1ccccc1C(=O)Nc1nc2nc(C)cc(=O)n2[nH]1
10% | FC(F)(F)c1cccc(Nc2ncnc3ccccc23)c1
2% | CCOc1ccc(-c2nc(SCC(=O)Nc3ccc(C)c(C)c3)n3[nH]c(=O)cc3n2)cc1
-14% | CC(=O)Nc1ccc(-c2csc(Nc3ccc(S(N)(=O)=O)cc3)n2)cc1
? | C[C@]12c3[nH]c4cc(-c5ccco5)ccc4c3CCN1C(=O)[C@@H](CC(=O)NCCC1=CCCCC1)C[C@@H]2C(=O)N1CCCCC1
-8% | COc1ccc(NC(=O)NNC(=O)CCC(=O)Nc2ccccc2Cl)cc1
4% | O=S1(=O)C2CC3CCC2(CN1Cc1ccccc1)O3 (stereo not drawn)
-12%&-12% | CCCCC1=CC2=CC(=O)C(C)(OC(=O)CC)C(=O)C2=CO1 (stereo not drawn)
7% | CCOC(=O)c1ccc2[nH]c3c(c2c1)CCCC3
-4% | CCN(CC)c1nc(OCCNC(=O)Nc2ccccc2)nc(N(CC)CC)n1
3% | Cc1ccc(NC(=O)Cn2c(=O)n(CCC(=O)NCc3ccc4c(c3)OCO4)c(=O)c3sccc32)c(C)c1

A second format for part of the listing above.
Molecule	VDR inhibitor
CC(=O)Nc1ccc(-c2csc(Nc3ccc(S(N)(=O)=O)cc3)n2)cc1	-14%
C[C@]12c3[nH]c4cc(-c5ccco5)ccc4c3CCN1C(=O)[C@@H](CC(=O)NCCC1=CCCCC1)C[C@@H]2C(=O)N1CCCCC1	?

(further entries)
VDR inhibitor | mol
25% | NS(=O)(=O)c1ccc(CNc2nc(-c3cccnc3)nc3ccccc23)cc1
-5% | Cc1cccc(CSC2=NCCN2S(=O)(=O)c2ccc(F)cc2)c1
-7%&3% | Cc1onc(-c2ccccc2)c1-c1ccc(S(N)(=O)=O)cc1
-7% | CCN(CC)CCCn1c2c(c(SCC(=O)Nc3cccc4ccccc34)nc1=O)CCC2
-3% | CN(Cc1ccccc1)C(=O)c1ccc(NC(=O)Cc2cccc(NC(=O)C3CCCN(C(=O)C4CCCC4)C3)c2)cc1 (stereo not drawn)
13% | O=S(=O)(Cc1nnnn1-c1ccccc1)c1ccccc1
2% | CC(C)(C)NC(=O)c1ccc2nccnc2c1
-26% | NC(=O)c1nc(C(=O)N2CCCCC2)c2ccccc2n1
-19% | COc1cccc(/C=C2/Oc3ccccc3N(CC(=O)NCC3CCCO3)C2=O)c1 (stereo not drawn)
-4% | CC(C)c1ccc(NC(=O)CCCC(=O)NCCc2ccccc2)cc1
7% | COc1ccc(/C=C(/NC(=O)c2ccc(C)cc2)C(=O)N2CCCC2)cc1OC
3% | Cc1ccc(C)c(NC(=O)COC(=O)CCCN=C2NS(=O)(=O)c3ccccc32)c1
-1% | O=C(c1cccc(Oc2c(Cl)cccc2[N+](=O)[O-])c1)N1CCCCC1
5% | CCOC(=O)c1c(C)[nH]c(C)c1S(=O)(=O)NCC(=O)N1CCN(c2ccccc2F)CC1
-8% | O=C(NC(=S)Nc1ccc(S(=O)(=O)N2CCCCC2)cc1)c1ccc(Cl)cc1
0% | COc1ccc(OCCN2C(=O)c3cccc(N)c3C2=O)cc1
-4% | COc1ccc(OC)c(NC(=O)c2sc3ncnc(N4CCN(c5ccccn5)CC4)c3c2C)c1
-3% | COc1ccc(C(=O)NC(=S)N2CCN(C)CC2)cc1Br
156%[activator] | O=C(O)CCn1c(CO)nc2ccccc21
2% | Cc1ccc(-n2nc(CO)c(C(=O)NC(C)CCCc3ccccc3)n2)cc1 (stereo not drawn)
-10% | CC(OC(=O)C1CCN(c2ccc(C(F)(F)F)cn2)CC1)C(=O)NC1CCCCC1C (stereo not drawn)
6% | c1cnc(SCCOc2cccc3ccccc23)nc1
13% | O=C(N/N=C/c1coc2ccccc2c1=O)c1cc(O)cc(O)c1
-7% | CCN(CC)CCCNC(=O)Cn1ncc2c3ccccc3n(Cc3ccccc3)c2c1=O
-8% | CCOc1ccc(S(=O)(=O)N2CCN(C(=O)CCOc3ccccc3C)CC2)cc1
-28% | O=c1cc(-c2ccc(O)cc2)oc2c(O)c(O)c(O)c(O)c12
16% | CC(C)CC(=O)N/C(N)=N/c1nc2ccccc2o1
14% | Cc1ccc(N(CCC#N)C(=O)COC(=O)C2CCN(S(=O)(=O)c3ccc(C)c(C)c3)CC2)cc1

Screens deposited in PubChem BioAssay by National Center for Advancing Translational Sciences (NCATS).

These rows are one share of the data; count on the stated rates, not on these rows.
